Yeast UUG start – alters start codon recognition fidelity in yeast | S. cerevisiae UUG-firefly luciferase reporter, luminescence/redox ratio | activity score, % at 18.7 µM | 350,000 tested, 0.13% active;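 active = replicate mean at a twofold rise or more, about +100% in these data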;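 also: firefly luciferase made from a UUG start codon reports start codon fidelity; reporter light over untreated wells divided by growth signal over untreated wells; some hits fall short of that in this replicate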
* = called active by the depositor; & = joins results of further samples.

SMILES	Yeast UUG start
C[C@@H](NC(=O)C[C@H]1C[C@H]2c3cc(NC(=O)CC4CC4)ccc3O[C@H]2[C@@H](CO)O1)c1ccccc1	-7.7
COCC(=O)N(C[C@@H]1N[C@@H](CO)[C@H]1c1ccc(-c2cccnc2)cc1)C(C)C	-4.0
C[C@H](CO)N1C[C@H](C)[C@@H](CN(C)S(C)(=O)=O)Oc2ccc(NS(C)(=O)=O)cc2C1=O	-20.2
CN1C(=O)c2cc(NC(=O)c3cccc(C(F)(F)F)c3)ccc2OC[C@H]2O[C@H](CC(=O)NCCN3CCCC3)CC[C@@H]21	5.1
CCCNC(=O)N1[C@@H]2CN(C(=O)c3ccc(F)cc3)c3ccccc3[C@@H]2[C@@H]1CO	15.8
Cc1cccc(-c2ccc([C@H]3[C@@H](CO)N4CCCCN(CCC(F)(F)F)C[C@H]34)cc2)c1	2.2
Cc1noc(C)c1S(=O)(=O)Nc1ccc2c(c1)CC(=O)N([C@H](C)CO)C[C@H](C)[C@H](CN(C)C)O2	-0.4
CO[C@H]1CN(C)C(=O)c2ccc(NC(=O)C3CCCCC3)cc2OC[C@@H](C)N(C)C[C@@H]1C	13.2
C[C@@H]1CN([C@@H](C)CO)C(=O)c2cc(NC(=O)Cc3cn(C)c4ccccc34)ccc2O[C@@H]1CN(C)Cc1ccc(C(=O)Nc2ccccc2N)cc1	7.3
CC=Cc1ccc2n(c1=O)C[C@@H]1[C@@H](CO)[C@H](C(=O)NCC)[C@H]2N1S(=O)(=O)c1cn(C)cn1 (mixture of isomers)	4.4
C[C@@H]1CN([C@H](C)CO)C(=O)c2cccc(NC(=O)Nc3ccc(F)cc3)c2O[C@@H]1CN(C)Cc1ccc2c(c1)OCO2	-1.0
O=C(Nc1ccccc1F)N1CCCCN2[C@H](CO)[C@@H](c3ccc(C4=CCCC4)cc3)[C@@H]2C1	-0.3
CN(C)C(=O)[C@H]1[C@H](CO)[C@H]2Cn3c(ccc(-c4ccccc4)c3=O)[C@H]2N1Cc1ccccc1	2.0
CO[C@@H]1CN(C)C(=O)c2ccc(NC(C)=O)cc2OC[C@@H](C)N(C(=O)c2ccncc2)C[C@H]1C	-1.4
COc1ccc(C(=O)Nc2ccc3c(c2)OC[C@@H](C)N(C(C)=O)C[C@@H](C)[C@H](OC)CN(C)C3=O)cc1	3.3
CN(C)C(=O)C[C@H]1CC[C@H]2[C@H](COc3ccc(NC(=O)C4CC4)cc3C(=O)N2C)O1	26.3
C[C@H](CO)N1C[C@H](C)[C@@H](CN(C)C(=O)Nc2ccccc2)Oc2ccc(NC(=O)C3CC3)cc2CC1=O	18.4
CCCNC(=O)Nc1ccc2c(c1)C(=O)N(C)C[C@@H](OC)[C@H](C)CN(C(=O)C1CCOCC1)[C@@H](C)CO2	-3.1
Cc1ccc(S(=O)(=O)N2C[C@@H](O)COC[C@@H]3O[C@@H](CC(=O)NCc4ccc(Cl)c(Cl)c4)CC[C@H]32)cc1	8.5
C[C@@H]1CN([C@@H](C)CO)C(=O)c2cccc(NC(=O)Nc3ccccc3)c2O[C@H]1CN(C)Cc1ccc2c(c1)OCO2	-1.4
CO[C@@H]1CN(C)C(=O)c2cc(NC(=O)Nc3ccccc3)ccc2OC[C@@H](C)N(C(=O)CN(C)C)C[C@@H]1C	-10.0
COc1ccccc1NC(=O)N1C[C@@H]2[C@H](c3ccccc31)[C@@H](CO)N2CC1CCOCC1	21.6
COCC#Cc1ccc([C@H]2[C@H]3CN(S(=O)(=O)c4cccc(OC)c4)CCCCN3[C@H]2CO)cc1	-6.6
OC[C@H]1[C@H](c2ccc(C#Cc3ccccc3F)cc2)[C@@H]2CN(CC3CCOCC3)CCCCN12	-6.2
O=C(NC[C@@H]1[C@@H](c2ccccc2)[C@H](CO)N1Cc1cccnc1)c1ccccn1	11.1
O=C(c1ccncc1)N1CC[C@@H]2[C@H]1c1cc(-c3ccc(F)cc3)ccc1N[C@@H]2CO	-22.2
CO[C@@H]1CN(C)C(=O)c2ccc(NS(=O)(=O)c3cn(C)cn3)cc2OC[C@@H](C)N(CC2CC2)C[C@@H]1C	-11.6
C[C@H](NC(=O)C[C@@H]1CC[C@@H]2[C@H](COC[C@@H](O)CN2C(=O)Nc2cc(Cl)cc(Cl)c2)O1)c1ccccc1	2.9
CO[C@@H]1CN(C)C(=O)c2ccc(NS(=O)(=O)CC(F)(F)F)cc2OC[C@@H](C)N(CC2CCCCC2)C[C@H]1C	-4.6
CCCNC(=O)C[C@@H]1C[C@@H]2c3cc(N(C)C)ccc3O[C@@H]2[C@H](CO)O1	-6.5
CC(C)C#Cc1ccc([C@H]2[C@@H](CO)N3CCCCN(C(=O)Nc4ccccc4)C[C@H]23)cc1	15.4
CC(C)NC(=O)N1[C@H](CO)[C@@H]2c3ccccc3N(C(=O)c3ccccc3F)C[C@@H]21	2.2
Cc1noc(C)c1NC(=O)N(C)C[C@@H]1Oc2ccc(NC(=O)Cc3cn(C)c4ccccc34)cc2C(=O)N([C@H](C)CO)C[C@H]1C	3.0
CC=Cc1ccc2n(c1=O)C[C@H]1[C@H](CO)[C@@H](C(=O)N3CCc4ccccc4C3)N(C(=O)C3CCC3)[C@@H]21 (mixture of isomers)	15.7
CN1C(=O)c2cc(NS(=O)(=O)c3cccc(F)c3)ccc2OC[C@H]2O[C@@H](CC(=O)O)CC[C@@H]21	-7.4
COc1cccc(C(=O)Nc2ccc3c(c2)C(=O)N(C)[C@@H]2CC[C@H](CC(=O)N[C@@H](C)c4ccccc4)O[C@H]2CO3)c1	1.1

Next section; it opens with the 7 that closed the last part.
SMILES	Yeast UUG start
CCCNC(=O)C[C@@H]1C[C@@H]2c3cc(N(C)C)ccc3O[C@@H]2[C@H](CO)O1	-6.5
CC(C)C#Cc1ccc([C@H]2[C@@H](CO)N3CCCCN(C(=O)Nc4ccccc4)C[C@H]23)cc1	15.4
CC(C)NC(=O)N1[C@H](CO)[C@@H]2c3ccccc3N(C(=O)c3ccccc3F)C[C@@H]21	2.2
Cc1noc(C)c1NC(=O)N(C)C[C@@H]1Oc2ccc(NC(=O)Cc3cn(C)c4ccccc34)cc2C(=O)N([C@H](C)CO)C[C@H]1C	3.0
CC=Cc1ccc2n(c1=O)C[C@H]1[C@H](CO)[C@@H](C(=O)N3CCc4ccccc4C3)N(C(=O)C3CCC3)[C@@H]21 (mixture of isomers)	15.7
CN1C(=O)c2cc(NS(=O)(=O)c3cccc(F)c3)ccc2OC[C@H]2O[C@@H](CC(=O)O)CC[C@@H]21	-7.4
COc1cccc(C(=O)Nc2ccc3c(c2)C(=O)N(C)[C@@H]2CC[C@H](CC(=O)N[C@@H](C)c4ccccc4)O[C@H]2CO3)c1	1.1
O=C(c1cnccn1)N1C[C@@H]2[C@H](c3ccccc31)[C@H](CO)N2Cc1ccc2c(c1)OCO2	-10.0
C[C@H](CO)N1C[C@H](C)[C@H](CN(C)C(=O)Nc2ccc(F)cc2)Oc2ccc(NS(C)(=O)=O)cc2C1=O	5.4
COc1cccc(-c2ccc3c(c2)[C@@H]2[C@@H](CCN2C(=O)Cc2ccccc2)[C@H](CO)N3)c1	0.5
O=C(C1CC1)N1CCCCN2[C@@H](CO)[C@@H](c3ccc(-c4cccc(F)c4)cc3)[C@@H]2C1	1.1
Cc1ccc(S(=O)(=O)N(C)C[C@@H]2Oc3ccc(NC(=O)Nc4ccccc4)cc3C(=O)N([C@@H](C)CO)C[C@H]2C)cc1	20.2
COc1ccc(S(=O)(=O)Nc2cccc3c2O[C@@H](CN(C)S(=O)(=O)c2cn(C)cn2)[C@H](C)CN([C@@H](C)CO)C3=O)cc1	-3.1
Cc1noc(C)c1NC(=O)N(C)C[C@@H]1Oc2c(NC(=O)Nc3cccc4ccccc34)cccc2C(=O)N([C@@H](C)CO)C[C@H]1C	1.3
C[C@H]1CN([C@@H](C)CO)C(=O)c2cc(NC(=O)CCC(F)(F)F)ccc2O[C@@H]1CN(C)S(=O)(=O)c1cccs1	2.0
O=C(C1CCC1)N1CCCCN2[C@H](CO)[C@@H](c3ccc(C#CC4CCCC4)cc3)[C@H]2C1	9.5
CN1C(=O)c2cc(NC(=O)Cc3ccccc3)ccc2OC[C@@H]2O[C@@H](CC(=O)NC3CCC3)CC[C@H]21	11.1
COc1ccc(CN2C[C@@H](O)COC[C@H]3O[C@H](CC(=O)NCc4ccncn4)CC[C@@H]32)cc1	-8.4
COc1ccc(S(=O)(=O)N(C)C[C@@H]2Oc3ccc(NC(=O)Cc4ccccc4)cc3C(=O)N([C@H](C)CO)C[C@@H]2C)cc1	13.5
O=C(C[C@H]1CC[C@H]2[C@@H](COC[C@H](O)CN2Cc2ccccc2)O1)NCc1ccccc1Cl	1.0
CCCNC(=O)Nc1ccc2c(c1)C(=O)N(C)C[C@H](OC)[C@@H](C)CN(C(=O)C1CCOCC1)[C@H](C)CO2	-5.6
O=C(CC1CC1)N1CC[C@@H]2[C@H](CO)Nc3ccc(-c4cccc(F)c4)cc3[C@@H]21	5.9
Cc1ccc(S(=O)(=O)Nc2ccc3c(c2)CC(=O)N([C@@H](C)CO)C[C@@H](C)[C@H](CN(C)C(=O)NC(C)C)O3)cc1	0.6
CN1c2ccc(-c3ccc(F)cc3)cc2[C@@H]2[C@@H](CCN2C(=O)C2CCOCC2)[C@H]1CO	4.8
C[C@H]1CN([C@@H](C)CO)C(=O)c2cc(NC(=O)C3CC3)ccc2O[C@H]1CN(C)S(=O)(=O)c1cn(C)cn1	-2.8
CO[C@H]1CN(C)C(=O)c2cc(NC(C)=O)ccc2OC[C@@H](C)N(C(=O)C2CCOCC2)C[C@H]1C	-5.4
O=C(C[C@H]1CC[C@H]2[C@@H](COC[C@@H](O)CN2C(=O)Nc2ccc(F)cc2)O1)NC1Cc2ccccc2C1	16.5
O=C(CN1CCOCC1)N1CCCCN2[C@H](CO)[C@H](c3ccc(C#Cc4ccccc4F)cc3)[C@H]2C1	34.4
C[C@@H]1CN([C@@H](C)CO)C(=O)c2cccc(NS(=O)(=O)c3ccc(F)cc3)c2O[C@H]1CN(C)Cc1ccc(C(=O)O)cc1	5.3
COc1ccc(CN(C)C[C@@H]2Oc3c(NC(=O)Nc4ccc(F)cc4)cccc3C(=O)N([C@H](C)CO)C[C@H]2C)cc1	-13.0
C[C@H](CO)N1C[C@H](C)[C@@H](CN(C)Cc2ccc(Oc3ccccc3)cc2)Oc2c(NC(=O)Nc3ccc4c(c3)OCO4)cccc2C1=O	-5.0
C[C@H]1CN([C@@H](C)CO)C(=O)c2cc(NS(=O)(=O)c3ccc(F)cc3)ccc2O[C@H]1CN(C)C	1.5
COc1ccc(CN(C)C[C@H]2Oc3ccc(NS(=O)(=O)c4ccc(C)cc4)cc3C(=O)N([C@@H](C)CO)C[C@H]2C)cc1	2.5
C/C=C/c1ccc([C@@H]2[C@@H](CN(CCC)C(C)=O)N(C(C)=O)[C@H]2CO)cc1	2.4&3.3
COc1ccc(CN2C[C@H](O)COC[C@H]3O[C@@H](CC(=O)NCc4ccncn4)CC[C@@H]32)cc1	-13.4
O=C(NC1CCC1)[C@H]1[C@H](CO)[C@H]2Cn3c(ccc(-c4ccccc4)c3=O)[C@@H]1N2	-9.8
CN1c2ccc(-c3ccccc3F)cc2[C@H]2[C@H](CCN2C(=O)Nc2cc(F)ccc2F)[C@H]1CO	-3.0
C[C@@H]1CN([C@H](C)CO)C(=O)c2cccc(NC(=O)Nc3ccc4c(c3)OCO4)c2O[C@@H]1CN(C)C(=O)NC1CCCCC1	13.0
C[C@H](CO)N1C[C@H](C)[C@H](CN(C)Cc2ccc(C(=O)O)cc2)Oc2ccc(NC(=O)Cc3cn(C)c4ccccc34)cc2C1=O	-2.0
C[C@H](CO)N1C[C@H](C)[C@@H](CN(C)Cc2ccc(C(=O)O)cc2)Oc2c(NC(=O)Nc3ccc(F)cc3)cccc2C1=O	6.0
C[C@H]1CN([C@@H](C)CO)C(=O)c2cccc(NC(=O)Nc3ccc4c(c3)OCO4)c2O[C@H]1CN(C)Cc1ccc(Oc2ccccc2)cc1	19.1
CN1CCCCN2[C@H](CO)[C@H](c3ccc(/C=C/c4ccccc4)cc3)[C@H]2C1	-0.1
CC(=O)NC[C@H]1[C@H](c2ccccc2)[C@@H](CO)N1C(=O)Cc1cccnc1	24.2
CC(=O)N1C[C@H]2[C@@H](c3ccccc31)[C@@H](CO)N2C(=O)CC1CC1	-10.0
O=C(C[C@H]1C[C@@H]2c3cc(NS(=O)(=O)c4ccc(F)cc4)ccc3O[C@@H]2[C@H](CO)O1)NCc1cc(F)ccc1F	-0.5
C[C@H]1CN([C@@H](C)CO)C(=O)c2cccc(NS(=O)(=O)c3cccs3)c2O[C@H]1CN(C)Cc1ccc(Oc2ccccc2)cc1	9.2
O=C(NC1CCCC1)N1CCCCN2[C@H](CO)[C@H](c3ccc(-c4ccccc4)cc3)[C@H]2C1	-3.0
CNC(=O)C[C@H]1CC[C@H]2[C@@H](COC[C@H](O)CN2C(=O)Nc2cccc(OC)c2)O1	0.9
COc1ccc(S(=O)(=O)Nc2cccc3c2O[C@@H](CN(C)C(=O)NC2CCCCC2)[C@@H](C)CN([C@@H](C)CO)C3=O)cc1	26.3
CO[C@H]1CN(C)C(=O)c2ccc(NS(=O)(=O)c3cccc(F)c3)cc2OC[C@@H](C)N(C(=O)Cc2cccnc2)C[C@H]1C	2.1
CN1C(=O)c2cc(NC(=O)Nc3ccccc3F)ccc2OC[C@H]2O[C@@H](CC(=O)NCc3ccc(-c4ccccc4)cc3)CC[C@H]21	-9.7
Cc1ccccc1NC(=O)Nc1ccc2c(c1)C(=O)N(C)[C@@H]1CC[C@@H](CC(=O)NCC3CC3)O[C@@H]1CO2	20.9
CCC(=O)Nc1ccc2c(c1)OC[C@H](C)N(CC1CC1)C[C@H](C)[C@H](OC)CN(C)C2=O	-5.6
COCCNC(=O)C[C@@H]1CC[C@@H]2[C@H](COC[C@H](O)CN2S(=O)(=O)c2ccccc2C)O1	14.4
O=C(C[C@@H]1CC[C@@H]2[C@H](COC[C@@H](O)CN2Cc2cccc(C(F)(F)F)c2)O1)NCc1ccncc1	2.0

A portion of the library; rates above refer to the full screens.
